Arbovirus inh: antivirals against arbovirus infection; arbovirus infection cell-based antiviral screen; inhibition, % at 10 µM; 200,000 tested, 0.37% active;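 active means inhibition from about 30%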;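 further: bluetongue infection of BSR cells; cell survival read as ATP light after 72 h; 0% = infected wells without compound and 100% = uninfected wells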
Mtb H37Rv: M. tuberculosis H37Rv growth inhibitors, H37Rv strain (AID 1626). M. tuberculosis H37Rv growth inhibition; higher % means a stronger effect. inhibition, % at 10 µM, or IC50 in µM where a hit was titrated. 220,000 tested, 0.95% active;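 active means confirmed in a dose series; inconclusive means inhibition above 80% but not taken into the dose series; inactive means below 80% or under 30% at every dose of the series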;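 further: bacteria incubated seven days before Alamar blue readout; 0% = bacteria only wells and 100% = bacteria with antibiotic wells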
Mtb betalactam: beta-lactam sensitization of Mtb H37Rv. M. tuberculosis H37Rv growth with meropenem, percent inhibition; hits of this screen are not shown here. 330,000 tested, 0.27% active. inhibition, % at 25 µM. AID 434955;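 active means about 74% or more and at least 40 points above the plate without the antibiotic, then above 30% in a dose series; inconclusive means first-round hits that could not be retested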;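 further: growth measured after seven days incubation then overnight dye step; 0% = bacteria only wells and 100% = bacteria with antibiotic; twin plates without the antibiotic show which effects depend on it; some results filed as inactive read as strong as hits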
YopH inh: blocks Yersinia enterocolitica YopH tyrosine phosphatase; 140,000 tested, 0.16% active; fluorescence Ex485/Em525; AID 898; inhibition, %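 (about 10 µM by stock and volumes)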;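 active means inhibition of 50% or more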;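 further: controls were vehicle for no effect and minimum signal wells for full effect; inactives centre near -20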
RecA intein inh: blocks M. tuberculosis RecA intein splicing. cell-free RecA intein splicing, fluorescence. inhibition, %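 (about 9 µM by stock and volumes)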. P9WHJ3. 290,000 tested, 0.75% active; in the data active means inhibition above about 30%; inconclusive means no clear call, values can overlap the other calls;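 further: 0% = vehicle wells and 100% = reference inhibitor control wells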
Target sequence (P9WHJ3 whole entry, looked up): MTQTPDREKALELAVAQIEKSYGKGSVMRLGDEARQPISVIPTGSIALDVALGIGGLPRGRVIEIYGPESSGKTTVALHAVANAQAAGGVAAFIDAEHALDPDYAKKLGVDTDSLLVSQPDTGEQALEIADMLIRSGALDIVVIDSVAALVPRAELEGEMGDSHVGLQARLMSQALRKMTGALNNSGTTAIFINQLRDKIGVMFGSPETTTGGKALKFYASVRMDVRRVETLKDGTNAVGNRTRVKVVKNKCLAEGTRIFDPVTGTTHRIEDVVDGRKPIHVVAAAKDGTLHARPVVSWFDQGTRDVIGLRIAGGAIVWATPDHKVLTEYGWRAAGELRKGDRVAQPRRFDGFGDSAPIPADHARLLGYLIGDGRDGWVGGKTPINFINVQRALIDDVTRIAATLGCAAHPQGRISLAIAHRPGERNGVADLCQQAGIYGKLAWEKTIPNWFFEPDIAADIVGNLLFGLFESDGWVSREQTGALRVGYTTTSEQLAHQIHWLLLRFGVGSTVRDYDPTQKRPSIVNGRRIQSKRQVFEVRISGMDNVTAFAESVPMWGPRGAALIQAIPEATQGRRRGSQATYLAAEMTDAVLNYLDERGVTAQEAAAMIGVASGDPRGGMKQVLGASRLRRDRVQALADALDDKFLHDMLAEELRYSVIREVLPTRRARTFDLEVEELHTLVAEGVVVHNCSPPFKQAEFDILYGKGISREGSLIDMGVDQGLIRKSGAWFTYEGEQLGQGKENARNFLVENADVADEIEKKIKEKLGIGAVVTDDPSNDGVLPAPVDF
Arbovirus inh repeat: recorded beside Arbovirus inh, whose call it bears; inhibition, %; measured here: 10K subset replicate screen; many hits read low in the repeat;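 first of two repeat runs on a subset; 0% = infected and 100% = uninfected wells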
The depositor's hits bear a star; ? = inconclusive; . = no result given.

Start of the data: the first 13 compounds, to show the layout:
SMILES | Arbovirus inh | Mtb H37Rv | Mtb betalactam | YopH inh | RecA intein inh | others
Cc1nnc(NC(=O)c2ccncc2)s1 | 13 | 6% | 1 | -28 | 8.1
CSC1=NC(NCCCO)c2c(sc3c2CC(C)(C)OC3)N1 (stereo unspecified) | 8 | -2% | -11 | -42 | -2.7
CN1CCN(c2ccc(Nc3ccnc4cc(Cl)ccc34)cc2)CC1 | . | . | 2 | . | -3.9
COC(=O)C1=C(O)/C(=C\c2sccc2C)N=C1C | -11 | -1% | -4 | -35 | -3.5
NC(=O)C1(N2CCCCC2)CCN(Cc2nc(-c3cccs3)no2)CC1 | . | -1% | 5 | . | 0.3
CCCn1c(=O)c(C(=O)NCc2ccccn2)c(O)c2ccccc21 | -2 | -1% | -9 | 1 | . | Arbovirus inh repeat=-7
CCOCCCNC(=O)CN1CCN(Cc2ccccc2C)C1=O | -2 | 3% | 0 | -16 | 0.8 | Arbovirus inh repeat=2
O=C1c2c(Br)c(Br)c(Br)c(Br)c2C(=O)N1c1ccccn1 | . | . | 4 | . | -1.1
O=C(CN1CCN(c2ccc(O)cc2)CC1)NC(=O)NCc1ccco1 | -11 | -19% | 4 | -33 | -9.9
CC(=O)N1CCN(c2ccc(NC(=S)NC(=O)/C=C/c3ccccc3)cc2)CC1 | 9 | 8% | 0 | -35 | -3.1
CCN(CC)C(=O)N1CCN(S(=O)(=O)c2ccc(C)cc2)CC1 | 9 | -9% | -6 | -21 | 1.3
CC(C)(C)c1ccccc1OCC(=O)Nc1ncn[nH]1 | 3 | -2% | 3 | 7 | -0.4
CCCCn1c(=O)cc(O)c2ccccc21 | 4 | 0% | -16 | 6 | 0.5

Results, previewed entries included:
SMILES | Arbovirus inh | Mtb H37Rv | Mtb betalactam | YopH inh | RecA intein inh | others
Cc1nnc(NC(=O)c2ccncc2)s1 | 13 | 6% | 1 | -28 | 8.1
CSC1=NC(NCCCO)c2c(sc3c2CC(C)(C)OC3)N1 (stereo unspecified) | 8 | -2% | -11 | -42 | -2.7
CN1CCN(c2ccc(Nc3ccnc4cc(Cl)ccc34)cc2)CC1 | . | . | 2 | . | -3.9
COC(=O)C1=C(O)/C(=C\c2sccc2C)N=C1C | -11 | -1% | -4 | -35 | -3.5
NC(=O)C1(N2CCCCC2)CCN(Cc2nc(-c3cccs3)no2)CC1 | . | -1% | 5 | . | 0.3
CCCn1c(=O)c(C(=O)NCc2ccccn2)c(O)c2ccccc21 | -2 | -1% | -9 | 1 | . | Arbovirus inh repeat=-7
CCOCCCNC(=O)CN1CCN(Cc2ccccc2C)C1=O | -2 | 3% | 0 | -16 | 0.8 | Arbovirus inh repeat=2
O=C1c2c(Br)c(Br)c(Br)c(Br)c2C(=O)N1c1ccccn1 | . | . | 4 | . | -1.1
O=C(CN1CCN(c2ccc(O)cc2)CC1)NC(=O)NCc1ccco1 | -11 | -19% | 4 | -33 | -9.9
CC(=O)N1CCN(c2ccc(NC(=S)NC(=O)/C=C/c3ccccc3)cc2)CC1 | 9 | 8% | 0 | -35 | -3.1
CCN(CC)C(=O)N1CCN(S(=O)(=O)c2ccc(C)cc2)CC1 | 9 | -9% | -6 | -21 | 1.3
CC(C)(C)c1ccccc1OCC(=O)Nc1ncn[nH]1 | 3 | -2% | 3 | 7 | -0.4
CCCCn1c(=O)cc(O)c2ccccc21 | 4 | 0% | -16 | 6 | 0.5
COc1ccc(C(=O)O/N=C(\N)c2ccccn2)cc1 | . | . | 6 | . | -0.3
Cc1ccc(C(=O)CSc2nc3cc(S(=O)(=O)N4CCOCC4)ccc3o2)cc1 | 9 | 5% | 12 | -45 | 7.3
CC(=O)Nc1ccc(NC2=Nc3ccccc3N3C2=Nc2c(c(C)nn2-c2ccccc2)C3c2ccccc2)cc1 (stereo unspecified) | -16 | 75% | 90 | -2 | -54
COC(=O)C1=CN(Cc2ccc(OC)cc2)C=C(C(=O)OC)C1c1cccs1 | 6 | -4% | -3 | . | -5.7
Cc1cccc(/C(N)=N/OC(=O)N2c3ccccc3Sc3ccccc32)c1 | -4 | ? | 94 | -34 | 8.3
C[C@H](NC(=O)c1cc2c(cn1)[nH]c1ccccc12)C(=O)O | . | . | 54 | . | -1.7
Cc1cc(NS(=O)(=O)c2ccc(NC(=O)CN3C(=O)c4ccccc4C3=O)cc2)nc(C)n1 | 1 | -6% | -6 | 6 | -2.3
Cc1ccc(CC(=O)Nc2cc([N+](=O)[O-])ccc2F)cc1 | 5 | -6% | 5 | . | 0.9
Cc1cccc(CCNC(=O)C2CCN(S(=O)(=O)c3c(C)noc3C)CC2)c1 | 0 | 3% | 2 | 18 | 0.8
O=C(O)c1ccn[nH]1 | . | -7% | -15 | . | -1.1
CCC(C)(C)NC(=O)CN(C(=O)CCC(=O)Nc1cc(C)ccn1)c1ccc2c(c1)OCO2 | 9 | 5% | -7 | -6 | 1.4
Cc1ccc(/C=N/NC(=O)c2nnn(-c3nonc3N)c2CN(C)c2ccccc2)s1 | . | . | 1 | . | 1.0
COCCNC(=O)C(c1ccc(O)cc1)N(C(=O)CCC(=O)Nc1nccs1)c1cccc(C)c1 (stereo unspecified) | 7 | -5% | 5 | . | 2.1
Cc1ccccc1CSc1nn2c(=O)c(C)nnc2s1 | 8 | -4% | -1 | . | 5.3
CCCc1ccccc1OCCNS(=O)(=O)c1cc2c(cc1C)OCC(=O)N2 | . | . | 0 | . | 3.3
COc1ccccc1NC(=O)Oc1cccc(OC(=O)c2ccccc2)c1 | . | 53% | 5 | . | -1.7
Cc1cc(C(F)F)n2ncc(C(=O)NCc3ccccc3F)c2n1 | 0 | -8% | 8 | -33 | 1.3
O=[N+]([O-])c1ccc(Cl)c(/C=N/N2CCN(c3ccccc3)CC2)c1 | -24 | -2% | 4 | -35 | 6.8
COc1ccc(NC(=O)C2CCN(S(=O)(=O)c3cccc4cccnc34)CC2)cc1 | 5 | -9% | 7 | -8 | -0.1 | Arbovirus inh repeat=5
CCOc1ccc(CNC(=O)CCS(=O)(=O)c2ccc3c(c2)oc(=O)n3C)cc1 | . | . | 7 | . | -1.7
COC(=O)[C@H](CCSC)NC(=O)Nc1cc(C)ccc1C | 5 | 1% | 5 | 35 | 2.2
CCN(C(=O)CSc1nncn1-c1ccccc1)c1c(N)n(Cc2ccccc2)c(=O)[nH]c1=O | 2 | 5% | -4 | -4 | -0.1
Nc1cc(Cl)ccc1C(=O)OCC(=O)N1CCCC1 | . | . | 5 | . | -0.3
COCCN1CN=C(NS(=O)(=O)c2ccc(C)cc2)NC1 | . | . | 4 | . | 0.3
CCOC(=O)c1cc(-c2csc(N/N=C/c3ccccc3Cl)n2)on1 | . | ? | 100 | . | -15
O=C(c1cccc(F)c1)N1CCN(c2cccc(C(F)(F)F)c2)CC1 | -6 | -6% | 9 | -16 | 3.8
CCCc1noc2c1C(c1cc(Br)ccc1F)C(C#N)=C(N)N2 (stereo unspecified) | -9 | -1% | 0 | . | 17
COc1ccc(N(CC(=O)NCCC2=CCCCC2)S(=O)(=O)c2ccc(C)cc2)cc1 | 0 | -2% | 0 | . | -0.5
CC(C)(C)c1ccc(OCC(=O)N/N=C/C2CC=CCC2)cc1 (stereo unspecified) | -3 | -1% | 5 | . | 0.5
O=C(O)CCC1c2cc3c4cc2OC2Oc5cc6c(cc51)C(CCC(=O)O)c1cc5c7cc1OC(O6)c1cc6cc(c1)Oc1cc(cc(C(=O)O)c1)Oc1cc8cc(c1)C(Oc1cc(c(cc1C5CCC(=O)O)C3CCC(=O)O)OC(O4)c1cc(cc(c1)Oc1cc(cc(C(=O)O)c1)O8)Oc1cc(cc(C(=O)O)c1)Oc1cc(cc2c1)Oc1cc(cc(C(=O)O)c1)O6)O7 (stereo unspecified) | . | . | ? | . | -25
CCOC(=O)c1cc(C#N)c(SCc2cccc3ccccc23)nc1C | 12 | 2% | -10 | 12 | -1.5
OC(CCc1ccncc1)COc1ccccc1 (stereo unspecified) | . | . | -1 | . | -1.1
CCc1ccc(-c2cc(C)no2)cc1S(=O)(=O)N1CCN(c2ccccn2)CC1 | . | . | 1 | . | 6.4
O=C(NCc1ccco1)C1CCN(C(=O)c2ccc(Cl)cc2Cl)CC1 | . | . | -3 | . | 0.5
Cc1ccc(NC(=O)c2cc(NC(=O)CCC(=O)O)ccc2N2CCCCC2)cc1 | -2 | 10% | 2 | -6 | 2.0
CC1(C)Cc2cccc(OCC(=O)N3CCN(c4ccccc4Cl)CC3)c2O1 | . | . | 5 | . | 5.3
Cc1c(OCC(=O)NCC(O)c2ccccc2)ccc2c3c(c(=O)oc12)CCC3 (stereo unspecified) | . | . | 3 | . | 1.6
CS(=O)(=O)N1CCN(c2ccc([N+](=O)[O-])cc2C(F)(F)F)CC1 | . | -4% | -14 | . | -0.7
O=c1nc2ccccc2c(NS(=O)(=O)c2ccccc2)n1-c1ccccc1 | 9 | 1% | -1 | -10 | -6.2
C[C@]12C=CC(=O)C=C1CC[C@@H]1[C@@H]2[C@@H](O)C[C@@]2(C)[C@H]1CC[C@]2(O)C(=O)CO | . | . | -1 | . | -1.0
O=C(Cc1ccccc1)c1nnc(-c2ccccc2)o1 | -1 | -6% | 0 | . | 8.4
O=C1C(=O)N(Cc2cccnc2)C(c2cccc([N+](=O)[O-])c2)/C1=C(\O)c1ccc2c(c1)OCCO2 (stereo unspecified) | . | . | 3 | . | -0.6
O=C1[C@@H]2C(Cc3ccc(O)cc3)NC3(C(=O)Nc4ccc(F)cc43)[C@@H]2C(=O)N1c1ccc(F)cc1 (stereo partly specified) | 9 | 10% | -2 | -33 | .
Cc1cccc(N2CCN(C(=O)Cn3cnc4c3c(=O)n(C)c(=O)n4C)CC2)c1C | -3 | -1% | -15 | 41 | 2.8
Cc1ccccc1Cn1cc(C)c(=O)[nH]c1=O | -2 | -3% | -4 | . | 4.3
CN(CC(=O)Nc1ccc(N2CCOCC2)cc1)C(=O)CC(c1ccccc1)c1ccccc1 | 1 | -6% | 2 | . | 0.0
Cc1ccc(F)c(NC(=S)Nc2cccc3ccccc23)c1 | . | . | 11 | . | 4.9

Pulled by structure from above (two):
SMILES | Arbovirus inh | Mtb H37Rv | Mtb betalactam | YopH inh | RecA intein inh | others
CCOC(=O)c1cc(C#N)c(SCc2cccc3ccccc23)nc1C | 12 | 2% | -10 | 12 | -1.5
CS(=O)(=O)N1CCN(c2ccc([N+](=O)[O-])cc2C(F)(F)F)CC1 | . | -4% | -14 | . | -0.7

Continued.
SMILES | Arbovirus inh | Mtb H37Rv | Mtb betalactam | YopH inh | RecA intein inh | others
CC1=C(C(N)=O)C(c2ccncc2)n2nc(-c3ccccc3Cl)nc2N1 (stereo unspecified) | -1 | -3% | 3 | -26 | -0.7 | Arbovirus inh repeat=1
C/C(=N\NC(=O)c1nnn(-c2nonc2N)c1CN1CCOCC1)c1ccc(CC(C)C)cc1 | . | . | -4 | . | 1.9
CCOc1ccccc1N(CC(=O)NCC1CCCO1)C(=O)CCC(=O)Nc1ccccn1 (stereo unspecified) | 2 | -3% | . | -20 | 2.0
COc1ccc(C2CC(=O)C(C=NCCN3CCN(C(C)=O)CC3)=C(O)C2)cc1 (stereo unspecified) | 9 | 1% | 6 | -1 | -0.6
CC(=O)Nc1cccc(OCCCNC(=O)c2cccc3ccccc23)c1 | . | 13% | 5 | . | -0.5
CCN(CC)c1ccc(NC(=O)c2ccc(Br)o2)c(C)c1 | 3 | 2% | 26 | -4 | 1.5
COc1ccc(-c2noc(CSc3nnc(Cc4ccccc4)n3-c3cccc(C)c3)n2)cc1OC | -2 | 1% | 6 | 5 | 6.9
COc1ccc(-c2cc(C(F)(F)F)n3nc(C(=O)NCc4ccco4)c(Cl)c3n2)cc1 | 1 | -4% | -8 | -25 | 0.9
Nc1ccc(S(=O)(=O)NC(=O)c2ccccc2)cc1 | 1 | 2% | -1 | -31 | -2.1
COc1ccc(Cl)cc1CNCCCSc1ncccn1 | . | . | -6 | . | 0.0
Cc1ccccc1Nc1nc(N)nc(CN2C(=O)NC3(CCCCC3C)C2=O)n1 (stereo unspecified) | 2 | -10% | -8 | -5 | .
COc1ccc(Cn2nnnc2C(c2ccncc2)N2CCOCC2)cc1 (stereo unspecified) | 1 | -16% | 5 | 26 | -1.8
O=[N+]([O-])c1ccc2cn(-c3ccccc3)nc2c1 | -11 | 6% | 5 | -13 | 23
C=CCn1c(SCC(=O)NCc2ccco2)nnc1-c1ccc2ccccc2n1 | -14 | . | -4 | -14 | 0.0
O=C(/C=C/c1ccccc1)CC(O)(c1ccccc1)C(F)(F)F (stereo unspecified) | -39 | 31% | 66 | 5 | 3.1
CSc1ccccc1NC(=O)Nc1ccc(Cl)cc1 | -16 | 2% | -6 | -14 | -1.8
CCN(CC(=O)NCc1cccs1)C(=O)/C=C/c1ccc(Cl)c(Cl)c1 | . | . | -3 | . | 0.1

Screening results: PubChem BioAssay, several laboratories

This is a subset, so the mix of outcomes need not match the whole.
